# Assay outcomes: PubChem BioAssay, Johns Hopkins Ion Channel Center
# KCNQ2 pot = enhances the rat KCNQ2 potassium channel; CHO-K1 KCNQ2, FluxOR thallium flux fluorescence; stronger effect = higher value; B-score at 10 µM; actives 0.54% (n = 310,000); AID 2239;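 active = fluorescence ratio B-score at least 3 SD of library B-scores, with initial fluorescence B-score within 3 SD, cut at about 5.3 in these data; same plate scores as AID 2156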;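 also: B-score of peak minus minimum over baseline fluorescence ratio after K+ and Tl+ stimulus; positive B-score means potentiation of KCNQ2 with more thallium influx and brighter signal; only the inactives scoring about 0 or higher are listed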
# Target sequence (O88943 whole entry, looked up): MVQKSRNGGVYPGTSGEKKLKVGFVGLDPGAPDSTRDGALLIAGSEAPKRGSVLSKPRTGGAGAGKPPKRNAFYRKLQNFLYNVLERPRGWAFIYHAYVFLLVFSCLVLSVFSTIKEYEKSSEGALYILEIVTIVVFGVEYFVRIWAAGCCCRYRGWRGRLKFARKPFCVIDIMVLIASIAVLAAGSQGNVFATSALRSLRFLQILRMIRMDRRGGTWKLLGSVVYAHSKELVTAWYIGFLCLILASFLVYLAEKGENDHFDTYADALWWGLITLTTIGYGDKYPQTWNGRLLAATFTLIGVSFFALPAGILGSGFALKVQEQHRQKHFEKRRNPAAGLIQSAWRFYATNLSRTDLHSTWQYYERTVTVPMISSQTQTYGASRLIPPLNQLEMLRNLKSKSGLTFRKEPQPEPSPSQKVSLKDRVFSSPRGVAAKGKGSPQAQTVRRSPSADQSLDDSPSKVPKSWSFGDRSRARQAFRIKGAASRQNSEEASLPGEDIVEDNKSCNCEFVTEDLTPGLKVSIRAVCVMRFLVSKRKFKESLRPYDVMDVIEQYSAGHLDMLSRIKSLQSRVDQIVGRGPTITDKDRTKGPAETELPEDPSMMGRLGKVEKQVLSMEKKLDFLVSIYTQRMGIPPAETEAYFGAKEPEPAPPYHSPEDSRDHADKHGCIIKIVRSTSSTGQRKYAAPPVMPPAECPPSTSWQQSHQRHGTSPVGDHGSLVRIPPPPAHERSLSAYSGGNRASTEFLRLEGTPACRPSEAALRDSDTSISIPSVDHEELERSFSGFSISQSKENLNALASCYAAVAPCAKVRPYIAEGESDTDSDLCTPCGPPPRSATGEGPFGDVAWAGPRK
# KCNQ2 pot baseline = recorded beside KCNQ2 pot, whose call it bears; B-score; compound at 10 µM; measured here: initial fluorescence intensity artifact check;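 brightness before thallium and not channel activity; 0 = typical well and far values either way flag optical interference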
# Numbers without * were called inactive. Only part of the results is shown; the hit share may differ from the screen's.
# The first three compounds (preview)
SMILES,KCNQ2 pot,KCNQ2 pot baseline
C[C@H](NC(=O)N1CCn2c1nc1ccccc12)C(=O)NCCc1ccccc1,1.03,0.49
CCCCCCCCCc1nc(N)n[nH]1,0.13,-1.99
CC1(C)Cc2c(sc3nc(-c4ccccc4Cl)n(N)c(=O)c23)CO1,0.07,-0.08

# The listing, from the first entry:
SMILES,KCNQ2 pot,KCNQ2 pot baseline
C[C@H](NC(=O)N1CCn2c1nc1ccccc12)C(=O)NCCc1ccccc1,1.03,0.49
CCCCCCCCCc1nc(N)n[nH]1,0.13,-1.99
CC1(C)Cc2c(sc3nc(-c4ccccc4Cl)n(N)c(=O)c23)CO1,0.07,-0.08
Cc1cccc(NC(=O)Cn2nnc3ccccc32)c1,1.14,-0.36
O=C(O)c1cc2c(cn1)[nH]c1ccccc12,0.81,-2.36
CCN(CC(=O)Nc1ccccc1C(F)(F)F)C(=O)CSCC(=O)Nc1cc(C)on1,1.52,-2.59
Cc1nnc(SCC(=O)Nc2nccs2)n1C(C)C,1.05,0.01
Cc1cccc(C)c1NC(=O)C(=O)NCCOc1ccc(Cl)cc1,0.11,-0.15
O=Cc1c(NCc2ccco2)nc2ccccn2c1=O,0.8,-0.05
COc1cc(C(=O)OCC(=O)N(C)C)cc(NC(=O)c2ccco2)c1OC,0.94,-0.04
CN(C)CCCOC(=O)C1c2ccccc2Oc2ccccc21,1.12,-1.78
CSc1ncc(Cl)c(C(=O)Nc2ccc(NC(C)=O)cc2)n1,0.03,-0.36
COc1ccc(Cc2noc(CN3CCC(c4ccncc4)CC3)n2)cc1OC,0.39,2.51
CCc1c(C(=O)NCc2ccc3c(c2)OCO3)[nH]c(C)c1C(C)=O,0.4,0.11
CCOC(=O)Cc1csc(NC(=O)CC)n1,0.11,0.32
Cc1ccc(N2CCN(C(=O)c3ccccc3F)CC2)c(C)c1,0.16,0.01
COC(=O)c1ccc(C2C(C(C)=O)=C(O)C(=O)N2CCO)cc1 (configuration not stated),1.47,1.01
O=C(CCN1CCN(S(=O)(=O)c2ccc(Cl)cc2)CC1)Nc1ccccc1F,1.22,-1.37
COc1ccc(C2CC(c3c(-c4ccccc4)c4cc(Cl)ccc4[nH]c3=O)=NN2C(=O)CCC(=O)O)cc1 (configuration not stated),0.62,0.14
Cc1cc(C(N)=O)nn1-c1c(Cl)cc(Cl)cc1Cl,0.78,-0.42
CCN(CC)CCNC(=O)C1(O)c2cc(Br)ccc2NC(=O)N1c1c(F)cccc1F (configuration not stated),0.05,1.02
Cc1cccc(Cn2cnc3c(sc4nc(C)cc(C)c43)c2=O)c1,0.65,-1.04
COc1cc(/C=C2/C(=O)ON=C2C)ccc1OCc1cccc(F)c1,1.2,-0.02
COc1cccc(C(=O)NCCC2=CCCCC2)c1,0.74,-0.74
O=C(O)c1cccc(Cn2c(Cl)c(/C=N/NC(=O)c3ccccc3Cl)sc2=O)c1,0.41,2
C=CCN(CC=C)C(=O)c1cc2ccccc2c(=O)o1,0.07,-0.58
NC(=O)NC(=O)CSc1nc2sc(-c3ccccc3)cc2c(=O)n1-c1ccccc1,1.25,-1.47
Cc1cc(NS(=O)(=O)c2ccc(NC(=O)CN3C(=O)NC(C)(c4ccccc4)C3=O)cc2)nc(C)n1 (configuration not stated),0.11,-0.04
O=C(CN1CCN(Cc2ccc3c(c2)OCO3)CC1)NCC(F)(F)F,2.25,1.81
CCc1nnc(NC(=O)CSc2nc3cc(OC)c(OC)cc3cc2C)s1,0.36,-0.98

# Random excerpt: two entries already listed, in no set order.
SMILES,KCNQ2 pot,KCNQ2 pot baseline
COc1cccc(C(=O)NCCC2=CCCCC2)c1,0.74,-0.74
CCc1nnc(NC(=O)CSc2nc3cc(OC)c(OC)cc3cc2C)s1,0.36,-0.98

# Remaining list, next part.
SMILES,KCNQ2 pot,KCNQ2 pot baseline
CCC(C)(C)c1ccc(OCCCC[n+]2ccccc2)c(C(C)(C)CC)c1,0.8,-0.5
COc1ccccc1NC1=NC(CO)(CO)CS1,0.45,-1.33
COc1ccc2nc(SCC(=O)Nc3ccccc3OC)[nH]c2c1,1.85,1.36
O=S1(=O)CCC(=Nc2ccc(Cl)cc2)c2ccsc21,0.74,0.28
CCCc1nnc(NC(=O)CCC(=O)N2CCN(CCn3c(C)ccc3C)CC2)s1,0.04,2.05
COc1ccc(S(=O)(=O)N2CCN(C(=O)NCc3ccc(C)cc3)CC2)cc1,0.2,-0.2
COc1cc(C(=O)N2CCN(c3ccccn3)CC2)cc(OC)c1OC,0.27,-0.2
O=C(Nc1ccnn1C1CCN(Cc2ccccc2OC(F)F)CC1)c1cccnc1,0.26,0.91
O=C(Nc1ccncc1)C1CC1c1ccccc1 (configuration not stated),0.89,0.11
O=C(O)c1cccc(NC(=O)c2cccc(S(=O)(=O)Nc3cccc([N+](=O)[O-])c3)c2)c1,1.66,-0.61
CCOC(=O)CC(=O)CSc1nc2c(sc(=S)n2-c2ccccc2)c(=O)[nH]1,0.75,-0.26
O=C(NCc1cccs1)Nc1ccc2c(c1)OCO2,1.34,0.39
O=C(Nc1cc(Cl)ccc1N1CCOCC1)c1ccc(N2CCCCC2)c([N+](=O)[O-])c1,0.16,-1.06
Cc1nc2nc3c(cn2n1)C(=O)CCC3,0.45,-1.86
O=C(Nc1ccon1)c1ccc(S(=O)(=O)N2CCOCC2)cc1,0.92,0.69
O=C(COc1ccc(Cl)cc1)NCc1nnc(SCC(=O)c2ccccc2)o1,0.06,0.2
COC(=O)C1=C(C(=O)OC)[C@@H]2Nc3ccccc3[C@@]23C[C@@H](C(=O)OC)N(C(=O)c2ccco2)C3=N1,0.64,1.39
CCO[C@@H]1OC(C(=O)NC2CC2)=C[C@H](c2ccc(C(F)(F)F)cc2)[C@H]1CCCO,0.92,-0.71
O=C(CN1C(=O)NC2(CCCC2)C1=O)OCc1c(F)cccc1Cl,1.31,-0.43
Cc1ccccc1-n1c(=O)c2ccccc2n(CC(=O)NCc2ccco2)c1=O,2.18,-1.65
COc1ccc(S(=O)(=O)N(C)CC(=O)NC2CC2)cc1OC,0.44,0.15
CSc1ccc(C(=O)C2CCCN(S(=O)(=O)c3c(C)noc3C)C2)cc1 (configuration not stated),1.38,-0.07
CCOC(=O)c1cc2ccc(OC)c(OC)c2c(=O)s1,0.18,0
NC(=S)Cc1nc2n(n1)Cc1ccccc1-2,0.88,0.67
CCN1C(=O)/C(=C\C=C2/C=CC=CN2CC)SC1=S,0.08,1.31
CCOC(=O)N1CCN(C(=O)c2ccc(S(=O)(=O)Nc3cccc(C(F)(F)F)c3)cc2)CC1,2.49,1.97
N#CC1(Nc2cccc(Br)c2)C(=O)Nc2ccccc21 (configuration not stated),2.14,0.16
O=C(CSc1nnc(CNC(=O)c2cccs2)o1)Nc1cccc(F)c1,0.23,0.18
COc1ccc(OCCSc2nnc3c(Cl)cc(Cl)cn23)cc1,1.79,-0.74
CCC(=O)Nc1nc2ccc(NC(=O)c3cc(OC)c(OC)c(OC)c3)cc2s1,0.09,1.01
Cc1ccc(OCc2nnc(NC(=O)OCC(C)C)s2)c(C)c1,0.51,-0.41
CC(OC(=O)Cn1c(C(F)(F)F)nc2ccccc21)C(N)=O (configuration not stated),0.03,0.13
CCCCN1C(=O)C(=O)N(CC(=O)c2ccc3c(c2)OCO3)C1=O,1.41,-1.78
Cc1ccc(S(=O)(=O)N2CCN(C(=O)N(C)C)CC2)cc1,0.44,-0.88
Cn1c(=O)c2sc3c(c2n(CC(=O)Nc2ccccc2)c1=O)COC(C)(C)C3,1.13,0
CC(=O)c1ccc(N2CCN(C(=O)c3cc4c(s3)CCCC4)CC2)cc1,1.35,-0.79
S=C(Nc1ccc(Cl)cc1Cl)Nn1cnnc1,0.01,-0.25
Cc1ccnc(N2CCC(C(=O)NCc3ccccc3F)CC2)n1,1.41,-0.34
CNS(=O)(=O)c1cccc(C(=O)OCC(=O)N2c3ccccc3CC2C)c1 (configuration not stated),1.64,-1.66
Cc1ccc(CS(=O)(=O)CCC(=O)NCCN2CCCC2)cc1,3.43,-0.05
C#CCOCCOCCOCCNc1nc(N2CCN(C(=O)[C@H]([C@@H](C)O)n3cc(CCCCN)nn3)CC2)nc(N2CCN(C(=O)[C@H](C)n3cc(CCCN=C(N)N)nn3)CC2)n1,0.35,1.15
COc1ccc(NC(=O)CSc2ccc3nnc(CCNC(=O)c4ccccc4)n3n2)cc1OC,0.26,-1.35
CCOC(=O)C1CCN(C(=O)CNC(=O)OC(C)(C)C)CC1,0.93,-1.6
CN1CCN(C(=O)c2ccc3c(Cl)c4c(nc3c2)CCCC4)CC1,0.39,0.65
CC12CCC(C(N)=O)(c3nc4ccccc4nc31)C2(C)C (configuration not stated),0.17,-1.47
O=C(O)CCCNS(=O)(=O)c1cccc2nsnc12,1.21,-0.03
CC1=C(C(=O)OCC2CCCCC2)C(c2ccc(O)cc2)NC(=O)N1 (configuration not stated),1.68,-1.35
Cc1nn(C(C)C(=O)Nc2ccc3c(c2)OCO3)c(C)c1[N+](=O)[O-] (configuration not stated),0.79,-1.55
CCCN(CC1CC1)C(=O)Nc1ccccc1C,1.13,0.24
Cn1cnc([N+](=O)[O-])c1NCc1ccccc1,0.02,-0.08
Cc1nonc1OC(C)CNCCNc1ccc([N+](=O)[O-])cc1 (configuration not stated),1.7,1.68
O=C(Cn1cc2c(n1)CCCC2)Nc1ccccc1Br,0.04,0.27
CCN(CC)S(=O)(=O)c1ccc(N2CCN(S(=O)(=O)c3ccccc3)CC2)nc1,0.46,-2.12
CCn1cc(/C=C/C(=O)Nc2c(C)nn(Cc3ccccc3)c2C)cn1,0.92,0.36
Cc1cc2c(NC(=O)Nc3ccccc3)cccc2nn1,1.62,0.73
CCOc1ccccc1NC(=O)CSc1n[nH]c(=O)n1-c1ccccc1,0.03,0.49
Cc1ccc(-c2nn(-c3ccccc3)cc2/C=C/C(=O)Nc2nccs2)cc1,0.33,-2
Cc1ccc(-n2c(C)cc(C(=O)CN3CCCCC3)c2C)cc1,1.59,-1.37
O=C(NCC(=O)N1CCCC1)c1ccccc1F,0.62,1.05
C/C(=N\Nc1nnc(-c2ccccc2)c(-c2ccccc2)n1)c1cccc([N+](=O)[O-])c1,0.28,-1.27
# Next entries follow.
SMILES,KCNQ2 pot,KCNQ2 pot baseline
COC(=O)CSc1ncc(OC)c(OC)n1,0.4,-1.03
COc1ccc(/C=C/C(=O)NCC(=O)N/N=C(\C)Cc2ccccc2)cc1,0.51,-0.17
O=C(/C=C/c1ccccc1)Nc1sc2c(c1C(=O)O)CCC2,2.85,0.46
Cc1cc(C)c2c(NC(=O)CCl)nn(C)c2n1,0.1,0.46
CC(C)C(NS(=O)(=O)c1ccccc1)C(=O)NC1CCCC1 (configuration not stated),1.39,-1.55
Cc1cccc(C)c1NC(=O)CSc1nnc(C)n1CC1CCCO1 (configuration not stated),0.86,0.17
O=C(c1ccc(F)cc1)N(c1ccccn1)C1CCCCC1,0.25,0.91
CC(C)=CCN1CCN(Cc2ccc(C)s2)CC1CCO (configuration not stated),0.49,-0.85
Cc1cc(C)c(S(=O)(=O)NCCC2CCCN2C)c(C)c1 (configuration not stated),1.06,-1.12
CNC(=O)CNC(=O)Nc1ccc(C)cc1,0.32,-1.23
Cc1cc(=O)[nH]c(N2CCN(c3ccc(Cl)cc3)CC2)n1,0.89,-0.83
COc1cccc(/C=C(\CC(=O)O)c2nc3ccccc3s2)c1,1.29,1.57
COC(=O)c1ccc(Oc2nc(NC(C)C)nc(N(C)C)n2)cc1,10.6*,-2.96*
COc1cccc(C(=O)Nc2cccc(-c3ccc(N4CCOCC4)nn3)c2)c1OC,0.3,0
O=C(NCc1ccc2c(c1)OCO2)Oc1ccccc1,2.42,-0.36
COc1ccc(CN2CCCC(C(=O)N3CCCCC3)C2)cc1 (configuration not stated),0.73,0.5
COc1c(O)ccc(/C=N/NC(=O)c2ccc3c(c2)OCCO3)c1[N+](=O)[O-],1.27,-1.42
Cc1ccc2c(c1)S/C(=C/c1ccc[n+](CCO)c1)N2C,0.03,1.87
CC(=O)Nc1ccc(Nc2ccc(S(=O)(=O)C(F)(F)F)cc2[N+](=O)[O-])cc1,0.35,-1.57
CC1(C)Cc2c(cnn2-c2ccc(F)cc2)C(NC(=O)Cn2cncn2)C1 (configuration not stated),0.54,-0.94
CCNC(=S)N/N=C/c1ccc(C#N)cc1,0.09,-1.05
Cc1ccc(NC(=O)C(C)c2ccc(-c3ccccc3)c(F)c2)c(C)c1 (configuration not stated),2.77,1.43
Cc1cccc(NC(=O)CC2NC3CCCCC3NC2=O)c1 (configuration not stated),0.29,-0.63
CCC/C=C1/CCCOC(C(=O)NCc2ccc(S(C)(=O)=O)cc2)(C(F)(F)F)C1 (configuration not stated),0.63,-0.84
CNC(=O)c1c(NC(=O)C(C)C)sc2c1CCC2,0.77,1.55
Cc1cc(C(=O)NNC(=O)Nc2ccc(Cl)cc2)no1,0.07,0.37
c1ccc(OCc2nn3c(-c4cccnc4)nnc3s2)cc1,1.14,0.35
COC(=O)c1ccc(N2CN=C(c3ccc(C)cc3)NC2=S)cc1,0.35,-0.59
COc1ccc(-c2cc(C(=O)N/N=C(\C)c3ccco3)c3ccccc3n2)c(OC)c1,0.74,0.53

# Single values from the entries so far:
# COc1c(O)ccc(/C=N/NC(=O)c2ccc3c(c2)OCCO3)c1[N+](=O)[O-] @ KCNQ2 pot baseline = -1.42
# c1ccc(OCc2nn3c(-c4cccnc4)nnc3s2)cc1 @ KCNQ2 pot = 1.14

# Whole records, looked up by structure. Order of values: KCNQ2 pot | KCNQ2 pot baseline
# COc1ccc(-c2cc(C(=O)N/N=C(\C)c3ccco3)c3ccccc3n2)c(OC)c1 across the screens: 0.74 | 0.53
# Cc1cc(C(=O)NNC(=O)Nc2ccc(Cl)cc2)no1 across the screens: 0.07 | 0.37
